AF4-AF9 inh = blocks AF4 peptide binding to human AF9 | AlphaScreen, biotin-AF4 peptide binding to FLAG-AF9 | P42568 | actives 0.47% (n = 350,000) | AID 651704 | inhibition, % at 10 µM;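 active = every replicate reaching a set inhibition limit, whatever the replicate mean, cut at about 25% in these data; inconclusive = mean inhibition reaches that limit but some replicates miss it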;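 note: 0% = plate neutral control median and 100% = total signal loss; the record names both 10 and 1 µM as test concentration; the first replicate is given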
LANA-H2A inh = blocks KSHV LANA binding to histone H2A/H2B | inhibition, % (concentration not given with the values) | actives 0.6% (n = 320,000) | Q9QR71 | cell-free LANA-H2A/H2B peptide, fluorescence polarization | AID 2629; in the data active = inhibition mostly above about 10%, no sharp cut-off; inactive = mostly below about 6.7%;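 note: stock transfer was 7.5 nL into about 10 µL; 0% = median of vehicle wells and 100% = median of positive control wells; one replicate is shown; the record names a cut of 25% in any replicate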
Target sequence (Q9QR71 whole entry, looked up): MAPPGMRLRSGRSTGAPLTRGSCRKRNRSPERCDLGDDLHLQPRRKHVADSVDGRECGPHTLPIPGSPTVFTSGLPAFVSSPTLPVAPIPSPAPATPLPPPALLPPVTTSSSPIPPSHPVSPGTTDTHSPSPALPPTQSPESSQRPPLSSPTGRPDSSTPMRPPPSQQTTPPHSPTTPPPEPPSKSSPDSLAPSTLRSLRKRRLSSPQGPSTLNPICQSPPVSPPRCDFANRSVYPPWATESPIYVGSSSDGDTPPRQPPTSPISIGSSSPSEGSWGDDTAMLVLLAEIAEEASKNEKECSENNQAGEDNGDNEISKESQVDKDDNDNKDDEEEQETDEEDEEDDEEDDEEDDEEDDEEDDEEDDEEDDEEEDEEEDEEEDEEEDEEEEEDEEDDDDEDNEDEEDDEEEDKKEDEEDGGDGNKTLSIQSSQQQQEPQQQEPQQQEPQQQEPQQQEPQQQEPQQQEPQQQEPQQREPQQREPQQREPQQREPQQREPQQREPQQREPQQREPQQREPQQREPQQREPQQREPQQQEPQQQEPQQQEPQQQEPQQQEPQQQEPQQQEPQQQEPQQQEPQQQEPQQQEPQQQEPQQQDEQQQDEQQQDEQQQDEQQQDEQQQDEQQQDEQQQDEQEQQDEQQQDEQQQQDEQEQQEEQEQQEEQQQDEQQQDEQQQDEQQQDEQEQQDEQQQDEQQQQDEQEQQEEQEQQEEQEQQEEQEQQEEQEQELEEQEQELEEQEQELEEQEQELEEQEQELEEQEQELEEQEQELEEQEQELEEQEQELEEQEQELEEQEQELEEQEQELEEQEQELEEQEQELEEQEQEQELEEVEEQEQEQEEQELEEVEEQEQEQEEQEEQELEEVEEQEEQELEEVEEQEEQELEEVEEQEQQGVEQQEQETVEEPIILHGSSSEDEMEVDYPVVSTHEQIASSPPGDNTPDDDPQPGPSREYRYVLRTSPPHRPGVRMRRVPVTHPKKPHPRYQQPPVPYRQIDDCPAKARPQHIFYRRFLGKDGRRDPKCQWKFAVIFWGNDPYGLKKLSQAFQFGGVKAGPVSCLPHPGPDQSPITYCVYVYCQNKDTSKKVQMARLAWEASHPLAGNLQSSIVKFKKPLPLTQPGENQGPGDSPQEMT
Beta cell apopt = blocks beta cell apoptosis. INS-1E cytokine-induced death, ATP luminescence, 48 h; percent of positive-control rescue, neutral wells zero. protection from apoptosis, % (test concentration not listed). actives 0.8% (n = 300,000);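 active = all replicates at 75% or more, or half of them and the mean; inconclusive = half reach 75% but not the mean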;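 note: 0% = cytokine-treated negative control wells and 100% = positive control rescue; higher means more ATP so stronger rescue from cytokine killing; wells of about 40 µL received 100 nL stock; the first replicate is given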
Vif A3G = HIV-1 Vif–A3G interaction blockers – biochemical, TR-FRET, GST-Vif 1-94, biotin-A3G peptide, dose response retest, primary screen (AID 1117319). TR-FRET GST-Vif / biotin-A3G peptide binding; higher % means a stronger effect; test concentration not given here; strong numbers were not always called active. inhibition, %, or IC50 in µM where a hit was titrated. actives 0.57% (n = 260,000);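 active = above the screen mean plus three standard deviations and confirmed in dose response; inconclusive = results disagree or hit not tested in dose response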;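 note: Vif residues 1-94 fused to GST binding biotinylated APOBEC3G peptide 110-148; 0% = full assay without inhibitor and 100% = GST in place of GST-Vif; retest series ran down from 100 µM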
Bfl-1 A1 inh = inhibitors of the anti-apoptotic protein A1, read as caspase activation | actives 0.066% (n = 330,000) | caspase activation, % (test concentration not listed) | MEF A1-2A-BIM cells, Caspase-Glo 3/7 luminescence, 3 h; percent of clofoctol response, vehicle zero | AID 2462;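 active = over half of replicate activation scores above 10%, or exactly half above 10 with the replicate mean above 10; inconclusive = replicate mean below 10 yet half the replicates above 10; inactive = over half of replicates below 10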;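 note: wells of about 30 µL received 50 nL stock; many hits fall short of the cut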
Calb FLC = affects C. albicans growth with fluconazole; AID 1979; growth inhibition, % (test concentration not listed); actives 0.57% (n = 300,000); C. albicans CaCi-2 (fluconazole-resistant clinical isolate) + fluconazole, Alamar Blue growth, 48 h;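 active = most replicates above 75%; inconclusive = exactly half above 75%; inactive = most below 75%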;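 note: all wells also contain fluconazole at 8 µg/ml as a sub-toxic cotreatment; 0% = median of DMSO wells and 100% = median of geldanamycin control wells; wells of about 8 µL received 7.5 nL stock; the first replicate is given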
T cruzi inh = blocks replication of Trypanosoma cruzi; T. cruzi beta-gal in NIH3T3, luminescence, 90 h; actives 1.4% (n = 300,000); inhibition, % (concentration not given with the values);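 active = mean inhibition across valid replicates above about 55%, limit read from the data; inconclusive = mean below that limit but half or more replicates reach it; inactive = mean below it, under half of replicates reach it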;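 note: signal also drops with host cell toxicity which is not excluded here; 0% = plate median of DMSO wells and 100% = zero luminescence signal; higher percent means less beta-gal luminescence so fewer parasites; stock transfer was 50 nL into about 50 µL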
RanGTP-Impb inh = inhibitors of RanGTP-importin-beta interaction, primary screen, biochemical, FRET, CFP-Ran, YFP-importin-beta, homogeneous; actives 1.1% (n = 300,000); cell-free CFP-Ran/YFP-importin-beta FRET ratio; inhibition, % (test concentration not listed);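 active = most replicates above 15%; inconclusive = exactly half above 15%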;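 note: 0% = DMSO wells and 100% = Ran loaded with GDP instead of GTP; wells of about 40 µL received 100 nL stock; the first replicate is given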
An asterisk follows results filed as active; u = inconclusive; x = not tested or not shown; & = joins results of further samples.

Values run as follows: AF4-AF9 inh	T cruzi inh	Vif A3G	LANA-H2A inh	Calb FLC	Bfl-1 A1 inh	RanGTP-Impb inh	Beta cell apopt
> CC1=NN(c2ccc(C(=O)OC(C)C)cc2)C(=O)/C1=C\C=C\c1ccco1
  x	0	u	6.5	11	-0.1	-4.9	4
> O=[N+]([O-])/C=C1\CCCCCN1
  -1.2	15	13%	1.8	5	0.4	5.7	-17
> C/C(=N/O)c1c(O)c(C)c(-c2ccccc2)n(-c2ccccc2)c1=O
  x	-10	4%	-1.2	2	0.1	-1.8	-2
> COc1ccc(C2=NN(C(=O)CSc3ncccn3)C(c3ccc(C)cc3)C2)cc1 (stereo not given)
  x	13	9%	1.1	10	0.1	1.6	1
> CCN(C(=O)Cn1cnc2c1c(=O)n(C)c(=O)n2C)C1CCCCC1
  -1.9	x	-17%	-340	x	0.2	x	1
> CCOc1ncccc1C(=O)N(CC)CC(=O)Nc1ccc(NC(C)=O)cc1
  1.9	-6	10%	-12	-5	1.2	-1.2	2
> CN1CCc2c(sc(N)c2C(=O)c2ccc(Cl)cc2)C1
  5.7	29	-27%	-4.9	1	-0.3	11	x
> Cc1cccc(OCC(=O)N(Cc2ccco2)c2c(N)n(Cc3ccccc3)c(=O)[nH]c2=O)c1
  0.8	x	x	2.8	x	1.4	x	-6
> Cc1nc(CC(C)C)cc(C(=O)N2CCCC(Nc3ccc(C)c(C)c3)C2)n1 (stereo not given)
  0.7	1	x	-0.7	3	-0.8	-1.2	-5
> O=C1CCC(C(=O)Nc2cccc(Oc3ccccc3)c2)=NN1
  0.6	-5	0%	3.4	44	-0.1	0.7	-1
> Nc1n[nH]c(-c2ccc(Br)cc2)c1Cl
  x	5	0%	3.6	2	0.3	3.5	-6
> c1ccc(CO/N=C(\c2ccc(C3CC3)nc2)C2CC2)cc1
  0.4	13	-2%	-3.5	u	-0.4	2.5	5
> Cc1occc1C(=O)Nc1ccc(S(=O)(=O)N2CCCC2)cc1
  x	2	11%	7.8	-26	-5.6	u	3
> CC(CN1c2ccccc2Sc2ccccc21)N(C)C (stereo not given)
  8.0&8.7	5	22%	-2.4	x	1.1	-3.9	-3
> O=C(CCNC(=O)C1CCN(S(=O)(=O)c2ccc(F)cc2)CC1)NCc1cccc(Cl)c1
  -0.6	12	x	-7.5	-7	-0.9	0.3	-3
> CCOc1nc(Oc2cccc(C(=O)O)c2)nc(Oc2cccc(C(=O)O)c2)n1
  x	x	-1%	0.1	-4	0.3	1.9	-2
> CC(C)(C)c1ccc2c(c1)N(CC(=O)N1CCCC1)C(=O)CO2
  0.8	1	x	-4.9	7	-0.5	7.9	-2
> COc1ccc(C(=O)N2CCC(C(=O)NCc3ccccn3)CC2)cc1
  x	-4	6%	4.2	-5	0.5	-0.2	-5
> O=C1N/C(=C\c2ccccc2)c2ccccc21
  x	-15	2%	-1.6	5	-1.3	0.3	9
> COCC(C)n1c(SCC(=O)NC(=O)Nc2ccc3c(c2)OCCO3)nc2ccccc2c1=O (stereo not given)
  x	31	-5%&-5%	1.9	-9	-1.0	0.3	0
> COc1ccc(C2C(C(N)=O)=C(C)Nc3nc(CCCO)nn32)cc1 (stereo not given)
  1.7	-12	3%	1.9	1	0.7	-0.9	-3
> CC(C)CN(CCCNC(=O)CN1C(=O)COc2ccc(S(=O)(=O)N3CCOCC3)cc21)CC(C)C
  -1.0	-20	x	3.0	-3	-0.6	-0.7	0
> Cc1c(NC(=O)CSc2n[nH]c(-c3ccccc3)n2)c(=O)n(-c2ccccc2)n1C
  x	-11	0%	-2.1	-6	-1.1	0.5	-10
> N#CCCN(Cc1cccnc1)C(=S)NC(=O)c1ccco1
  -3.1	-5	-2%	-2.0	-2	0.8	5.6	-4
> CCOC(=O)c1c(NC(=O)CNCCOC)sc2c1CCCC2
  x	9	-1%	4.7	14	0.7	-0.9	-2
> Cc1cc(C)cc(NC(=O)c2cc(Cl)sc2Cl)c1
  x	11	x	1.1	11	-1.4	4.0	5
> N=c1ccn(Cc2c(Cl)cccc2Cl)cc1
  1.8	31	-2%	1.4	-2	-0.6	-2.9	-3
> CC1=NNC(=O)C1Oc1ccccc1 (stereo not given)
  x	2	u	2.1	6	-0.2	6.0	5
> CCOc1cccc(-c2c(C(=O)N/N=C(\C)c3ccccn3)nnn2-c2nonc2N)c1
  -13	u	x	-3.0	82*	0.0	2.1	x
> O=C(/C=C/c1ccc2c(c1)OCO2)Nc1nc(-c2ccccc2)cs1
  x	14	-3%	-7.3	-3	-0.3	-0.3	x
> CCC(C)c1ccc(OCC(=O)NNC(=O)C2CCCCC2)cc1 (stereo not given)
  -1.7	0	x	-4.1	-9	1.6	2.9	-9
> CCn1c(Cc2c(C)[nH]c3ccccc23)n[nH]c1=S
  x	-5	>100µM*	-0.3	8	-0.1	2.4	-6
> O=S(=O)(c1ccc(F)cc1)c1nc(-c2ccccc2F)oc1N1CCCCC1
  x	71*	19%	4.0	11	-0.1	-2.4	1
> O=C(Nc1ccc(F)cc1)N1CCCN(c2ccc(C(F)(F)F)cn2)CC1
  -2.0	-31	x	-1.8	-2	-0.4	3.7	1
> O=C(Nc1ccc([N+](=O)[O-])c(NC(=O)C2CCCO2)c1)C1CCCO1 (stereo not given)
  x	-7	12%	1.3	7	0.2	-1.6	-6
> CCOC(=O)C1(CC)CC(CSc2nc3ccccc3[nH]2)OC1=O (stereo not given)
  x	8	1%	-5.0	5	0.9	2.4	-3
> O=c1c2ccccc2nc(-c2ccc(Cl)c(Cl)c2)n1O
  x	3	4%	-3.1	50	0.2	5.0	40
> Cc1cc(Nc2cc(F)ccc2C)n2ncnc2n1
  -2.3	-18	2%	4.1	2	-0.4	-3.3	0
> COc1ccc(CNC(=O)CNC(=O)N2CC(=O)Nc3ccccc32)cc1
  -1.4	-14	x	4.4	-8	0.3	2.8	-1
> COc1ccc(OC)c(C(=O)c2ccc(Cl)cc2)c1
  4.5	-7	-6%	1.1	11	-0.4	3.5	-7
> O=S1(=O)CCOCCCN1Cc1ccccc1F
  -4.4	2	x	-2.5	5	-0.5	-0.9	-8
> O=C1c2cccc3c([N+](=O)[O-])ccc(c23)C(=O)N1c1ccc(Cl)cn1
  x	31	21%	2.0	1	2.9	-22	29
> CNC(=S)NNc1nc(-c2ccccc2)c2cc(Cl)ccc2n1
  3.9	-4	x	3.3	-3	0.5	0.4	x
> Cc1cccc(Cn2c(C)nc3ccc([N+](=O)[O-])cc3c2=O)c1
  9.7	3	x	3.4	18	0.0	5.7	0
> CCc1ccc(C2c3[nH]c4ccccc4c3CCN2C(=O)c2cc(C)nn2C)cc1 (stereo not given)
  x	-1	x	-1.4	31	0.3	-1.8	-27
> COc1ccc(NC2CC(=O)N(c3cccc([N+](=O)[O-])c3)C2=O)cc1 (stereo not given)
  -1.2	-7	7%	-3.8	7	-0.4	0.1	-2
> Cc1csc(SCC(=O)N(C)CC(=O)Nc2ccccc2Cl)n1
  17	-12	-2%	4.6	5	0.5	-2.5	-4
> O=C(O)CCCN=C1NC2(CCCC2)Cc2ccccc21
  x	-9	20%	-1.7	25	1.0	4.0	-2
> O=C(NCCc1c[nH]c2ccccc12)c1cc(Cl)c2c(c1)OCO2
  1.3	16	x	-4.6	21	-0.6	2.1	-6
> c1ccc2c(N3CCCCC3)nc(N3CCOCC3)nc2c1
  0.1	1	x	2.9	-45	-0.5	4.9	2
> COc1ccc(CC(=O)OC(C)C(=O)Nc2c(C)n(C)n(-c3ccccc3)c2=O)cc1OC (stereo not given)
  -0.2	x	x	3.5	x	-0.2	x	1
> CN(CC(=O)NCCc1ccccc1)CC(=O)Nc1cccc(F)c1
  2.1	x	x	-1.1	x	1.9	x	-3
> Cc1ccc(C2(C)NC(=O)N(CC(=O)N3CCN(S(=O)(=O)c4cccc([N+](=O)[O-])c4)CC3)C2=O)cc1 (stereo not given)
  1.6	x	x	-2.8	x	-0.9	x	6
> CCC(=O)N(Cc1cc2cc(OC)ccc2[nH]c1=O)c1cc(C)ccc1C
  x	6	-9%	1.9	u	-0.2	-1.1	3
> CCOc1cc(CNCCO)cc(Br)c1OCc1ccccc1Cl
  x	32	-11%	0.5	13	-0.3	2.9	38
> C/C(=N/NC(=O)CSCc1ccc(Cl)cc1)c1cccc(NC(=O)c2ccccc2)c1
  x	40	13%	1.0	-4	-0.3	-0.5	4
> CC(C)(C)c1ccc(S(=O)(=O)N2CCCCC2)cc1
  x	24	82%	-0.5	5	0.8	6.7	9
> Cc1nc(Cc2nnc(SCC(=O)N3CCN(c4ccc(F)cc4)CC3)o2)cs1
  -0.4	x	-12%	-66	x	0.6	x	-5
> O=C(CSc1ncc(C(F)(F)F)cc1Cl)N1CCN(S(=O)(=O)c2ccc(Cl)cc2)CC1
  x	40	2%	-0.7	28	0.7	-0.6	23
> CCOc1cc(Br)c(C=O)cc1OCC
  -0.8	26	x	0.3	-10	0.0	0.4	5

Vif A3G, what is marked active above.
molecule | AF4-AF9 inh | Vif A3G | LANA-H2A inh | RanGTP-Impb inh
CCn1c(Cc2c(C)[nH]c3ccccc23)n[nH]c1=S | x | >100µM* | -0.3 | 2.4

Later entries
Values run as follows: AF4-AF9 inh	T cruzi inh	Vif A3G	LANA-H2A inh	Calb FLC	Bfl-1 A1 inh	RanGTP-Impb inh	Beta cell apopt
> N#C/C(=C\c1ccccc1)c1nc2ncccc2[nH]1
  x	-2	4%	-1.5	9	0.2	u	4
> CC(=O)c1cc(-c2ccc(F)cc2)n(CCC(=O)Nc2cc(C)[nH]n2)c1C
  x	-13	16%	-4.2	-3	1.0	8.1	1
> CC(=O)N1c2c(cc(Br)cc2S(=O)(=O)N2CCCCC2)CC1C (stereo not given)
  -0.5	1	0%	0.4	-1	0.2	1.4	-1
> S=c1[nH]nc(-c2cnccn2)n1-c1ccccc1
  x	-2	3%	6.8	-1	-1.0	u	-9
> COc1ccc(C#Cc2c(-c3ccccc3)n(C)c3ccccc23)cc1
  1.9	x	x	2.9	x	-0.5	x	3
> CCCOc1ccc(C(CC(=O)O)NC(=O)CC(c2ccccc2)c2ccccc2)cc1 (stereo not given)
  -8.9	12	-18%	2.3	-1	-0.3	u	-5
> O=C(N/C=N/OCc1cccc(C(F)(F)F)c1)N1OC[C@@H]2COc3ccc4ccccc4c3[C@@H]21
  x	33	6%	-4.0	37	0.5	2.2	0
> CCOC(=O)[C@@H]1[C@H]2COc3cc(OC)ccc3[C@@H]2N2C(=O)N(c3ccccc3)C(=O)[C@]12C
  5.6	x	x	2.3	x	-1.5	x	-8

Among those listed so far, these have a tert-butyl group:
Values run as follows: AF4-AF9 inh	T cruzi inh	Vif A3G	LANA-H2A inh	Calb FLC	Bfl-1 A1 inh	RanGTP-Impb inh	Beta cell apopt
> CC(C)(C)c1ccc2c(c1)N(CC(=O)N1CCCC1)C(=O)CO2
  0.8	1	x	-4.9	7	-0.5	7.9	-2
> CC(C)(C)c1ccc(S(=O)(=O)N2CCCCC2)cc1
  x	24	82%	-0.5	5	0.8	6.7	9

Source: PubChem (several laboratories)
